FGF22 binding – binders of human FGF22 protein, primary screen, FGF22 synaptogenesis inhibitor project, biophysical, thermal shift, single point | Fibroblast growth factor 22 (Homo sapiens), Q9HCT0 | AID 651658, 2012 | calls only at 9.99 µM | recombinant FGF22 thermal shift, SYPRO orange fluorescence; percent of sucrose octasulfate shift, DMSO zero | 1.5% of 340,000 active;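 active = melting point raised past a set limit in the mean and every replicate; three in four hits are not shown here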
HNF4A DNA FP – change in binding of human HNF4A to DNA, primary screen, biochemical, fluorescence polarization, FITC-DNA; Hepatocyte nuclear factor 4-alpha (Homo sapiens), P41235; 1 h; activity change, % at 10 µM; 0.3% of 360,000 active; in the data active = activity change above about 30%, passing the limit was not always enough;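 note: controls were the assay level and a saturating level of protein; the project sought stronger binding though the title names inhibitors; some compounds called inactive have numbers as strong as hits; positive values seem to mean higher polarization but the record does not say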
E coli growth – E. coli growth inhibition, primary screen, OD600 | Escherichia coli growth, 23 h; active compounds read low | OD600 absorbance (concentration not given with the values) | 0.21% of 330,000 active | AID 1053175, 2014;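 active = OD600 absorbance below the run mean of sample wells minus 3.6 SD, in any replicate, cut at about 0.56 in these data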;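 note: stock transfer was 300 nL into about 60 µL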
B2AR ag – beta2AR agonists driving receptor internalization, primary screen, cell-based, FAP fluorogen, flow cytometry | Am2.2-beta2AR cells; reference of the scale not given here | response, % (concentration not given with the values) | Beta-2 adrenergic receptor (Homo sapiens), P07550 | 0.43% of 340,000 active;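 active = response above a set limit, near 3 SD of response in nonfluorescent compounds, cut at about 42% in these data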;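 note: stock transfer was 100 nL into about 11 µL; a reference agonist was the positive control; negative values mostly stem from fluorescent compounds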
Target sequence (P07550 whole entry, looked up): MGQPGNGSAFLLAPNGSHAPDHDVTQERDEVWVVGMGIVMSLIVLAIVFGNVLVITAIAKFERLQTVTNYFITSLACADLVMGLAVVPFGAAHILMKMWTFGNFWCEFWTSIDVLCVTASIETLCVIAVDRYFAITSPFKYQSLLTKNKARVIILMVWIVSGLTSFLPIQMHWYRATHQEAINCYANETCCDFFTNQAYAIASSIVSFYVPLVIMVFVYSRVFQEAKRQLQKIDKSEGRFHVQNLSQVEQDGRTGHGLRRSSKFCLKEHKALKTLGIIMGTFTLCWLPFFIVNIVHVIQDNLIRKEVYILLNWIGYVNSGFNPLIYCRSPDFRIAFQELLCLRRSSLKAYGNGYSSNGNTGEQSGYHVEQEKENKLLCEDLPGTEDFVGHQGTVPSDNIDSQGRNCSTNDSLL
ALR inh – inhibitors of human ALR sulfhydryl oxidase, primary screen, biochemical, H2O2 detection, HRP-luminol luminescence, single point | 3.8% of 290,000 active | FAD-linked sulfhydryl oxidase ALR (Homo sapiens), P55789 | purified ALR, DTT oxidation | inhibition, % (test concentration not listed);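 active = mean and each replicate at 75% or more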;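 note: stock transfer was 7.5 nL into about 7.5 µL; 0% = neutral wells and 100% = wells with inactivated enzyme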
Target sequence (P55789 whole entry, looked up): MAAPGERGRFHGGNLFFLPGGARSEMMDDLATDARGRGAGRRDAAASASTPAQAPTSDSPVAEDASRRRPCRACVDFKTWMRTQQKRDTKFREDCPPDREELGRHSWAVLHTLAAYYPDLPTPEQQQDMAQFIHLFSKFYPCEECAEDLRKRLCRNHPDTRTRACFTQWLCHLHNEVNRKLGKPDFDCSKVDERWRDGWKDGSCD
Ecoli rRNA inh – reduced GFP signal of wild-type E. coli, primary screen, bacterial rRNA inhibitor project, GFP/RFP fluorescence, OD600, single point. E. coli WT GFP vs humanized-ribosome RFP mutants, 24 h; active compounds read low; DMSO median 0, no signal -100. GFP signal change (wild-type ribosome), % (test concentration not listed). 1.6% of 350,000 active. AID 720706, 2013;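 active = significant combined selectivity score with lowered wild-type GFP, culture density cut under 30%, mutant RFP and density less affected; inactive = any of these conditions unmet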; note: one replicate is shown; some compounds called inactive have numbers as strong as hits
UCH37 DUB inh – inhibitors of human UCH37 deubiquitinase, primary screen, biochemical, Ub-AMC cleavage, fluorescence; Ubiquitin carboxyl-terminal hydrolase isozyme L5 (Homo sapiens), Q9Y5K5; inhibition, % (concentration not given with the values); 0.33% of 330,000 active; purified proteasome/UCH37; AID 588478, 2011;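 active = mean of two replicates above 20%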;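 note: 0% = compound-free wells with enzyme and 100% = wells lacking proteasome; stock transfer was 100 nL into about 20 µL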
Target sequence (Q9Y5K5 whole entry, looked up): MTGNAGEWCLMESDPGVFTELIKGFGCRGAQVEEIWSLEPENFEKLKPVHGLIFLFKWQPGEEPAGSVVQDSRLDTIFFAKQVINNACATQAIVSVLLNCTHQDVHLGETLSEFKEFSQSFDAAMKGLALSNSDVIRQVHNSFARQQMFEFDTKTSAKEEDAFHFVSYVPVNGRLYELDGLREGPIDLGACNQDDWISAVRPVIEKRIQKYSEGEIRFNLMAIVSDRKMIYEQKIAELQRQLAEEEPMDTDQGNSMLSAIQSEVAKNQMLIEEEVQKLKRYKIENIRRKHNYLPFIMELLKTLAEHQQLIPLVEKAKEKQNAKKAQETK
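System: Proteasome-associated human UCH37 deubiquitinase; Input: 0.15 nM proteasome in added enzyme buffer; Also added: Ub-AMC substrate from 1 µM stock; Incubation: 30 min compound-proteasome preincubation then 25 min substrate reaction, room temperature; Detection: fluorescence, ex 355 nm, em 460 nm; Read-out: % inhibition of Ub-AMC cleavage fluorescence; Benchmarks: no-proteasome and no-compound wells.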
Ecoli rRNA inh OD600 – further read-out of Ecoli rRNA inh, marked with its call; OD600 change, %; measured here: OD600 growth;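 optical density of the mix in the first replicate; 0 = DMSO median and -100 = no signal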
Ecoli rRNA inh RFP – second read-out of Ecoli rRNA inh, no call of its own (marks repeat the call); RFP signal change, %; measured here: RFP humanized mutant strains;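 first replicate; 0 = DMSO median and -100 = no signal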
An asterisk follows results filed as active; i = inactive; / = not tested or not shown; & = joins results of further samples.

Compound	FGF22 binding	HNF4A DNA FP	E coli growth	B2AR ag	ALR inh	Ecoli rRNA inh	Ecoli rRNA inh OD600	Ecoli rRNA inh RFP	UCH37 DUB inh
Nc1cc(=O)[nH]c(SCC(=O)Nc2cc(S(=O)(=O)N3CCCCC3)ccc2Cl)n1	i	4.9	0.69	0	/	-1	9	1.2	2.6
O=C(O)CCCNC(=O)c1ccc(NC(=O)Cc2ccc(Cl)cc2)cc1	i	-1.5	0.69	2	0	5	6	-1.2	1.5
C[C@H](CO)N1C[C@H](C)[C@@H](CN(C)C(=O)c2cnccn2)Oc2cc(C#CCC3CCCC3)ccc2S1(=O)=O	i	-0.5	/	/	/	-9&-7	-16&-48	4.4&16	/
C#CCNC(=O)C[C@@H]1C[C@@]2(C(=O)OCC)CCCC=C2N(Cc2ccco2)C1=O	i	2.8	/	/	/	16	19	1.9	/
CC(=O)Oc1cc2c(cc1Cl)C1(CC(c3ccccc3Cl)O2)CC(C)(C)NC(=S)N1 (stereo unspecified)	/	-0.5	0.74	-1	-1	/	/	/	1.3
Cc1ccc(N2C(=O)C(Cl)=C(Nc3c(C)n(C)n(-c4ccccc4)c3=O)C2=O)cc1	/	-4.0	0.73	-1	26	/	/	/	7.1
O=C(O)c1cc(S(=O)(=O)NCCCN2CCCC2=O)ccc1Cl	i	-1.1	0.72	-8	-7	9	-2	-1.4	3.8
Cc1ccc(OCc2cc(C(=O)NC3CCOC3)no2)cc1C (stereo unspecified)	i	0.0	0.73	0	-1	0	2	-0.9	0.0

Compound	FGF22 binding	HNF4A DNA FP	E coli growth	B2AR ag	ALR inh	Ecoli rRNA inh	Ecoli rRNA inh OD600	Ecoli rRNA inh RFP	UCH37 DUB inh
CN(C)c1cccc(C(=O)OCC(=O)N(Cc2ccccc2)C2CCS(=O)(=O)C2)c1 (stereo unspecified)	i	4.2	0.69	9	71	-1	7	-5.8	-24
N#C/C(=C\c1ccc(-c2ccc(Br)cc2)o1)C(=O)NCCc1c[nH]c2ccccc12	i	6.9	0.69	5	-9	/	/	/	5.9
CCOC(=O)Cc1[nH]nc2c1C(c1cccc(OC)c1OC)C(C#N)=C(N)O2 (stereo unspecified)	/	1.4	0.7	-10	17	/	/	/	2.0
COCCNC(=O)c1onc(CS(=O)(=O)c2cc(C)cc(C)c2)c1C(=O)NCCOC	i	-2.9	0.7	-4	-5	6	19	-0.1	6.7
CS(=O)(=O)NCCC1=CCCCC1	/	4.3	0.73	3	-9	/	/	/	44*
O=C(CCSc1ccc(Cl)cc1)N1CCCCCC1	/	-1.1	0.67	-13	-1	/	/	/	3.8
Cc1ccc2oc(C(=O)Nc3nonc3C)c(C)c2c1	i	0.4	0.73	0	-7	5	25	-2.5	3.7
COc1cc(/C=N/NC(=O)c2ccc(=O)[nH]n2)ccc1O	/	2.2	/	-8	99*	/	/	/	/

Compound	FGF22 binding	HNF4A DNA FP	E coli growth	B2AR ag	ALR inh	Ecoli rRNA inh	Ecoli rRNA inh OD600	Ecoli rRNA inh RFP	UCH37 DUB inh
COc1ccc(NC(=O)c2cccc(N3C(=O)C4C5C=CC(C6CC56)C4C3=O)c2)cc1 (stereo unspecified)	i	2.5	0.7	3	-2	-16	-14	1.1	2.0
CCOC(=O)C1=C(C)NC(C)=C(C(=O)OCC)C1c1cc(N)ccc1OC(F)F	/	1.6	0.74	8	-10	/	/	/	-10
O=S(=O)(Nc1cccc(F)c1)c1ccc(S(=O)(=O)N2CCOCC2)cc1	i	1.1	/	/	/	-5	-7	5.2	/
COc1ccc(-n2ncc3c2CC(C)(C)CC3NC(=O)CSc2ccccn2)cc1 (stereo unspecified)	i	1.4	0.64	11	-5	-24	-25	1.1	0.7
CC(C)C(N)c1csc(Nc2ccccn2)n1 (stereo unspecified)	i	-0.1	/	/	/	20	17	-0.5	/
CCOC1=C2[C@@H](CN(S(=O)(=O)c3ccc(C)cc3)[C@H]2c2ccccc2F)[C@H]2C(=O)N(C3CCCCC3)C(=O)[C@H]2C1	i	-1.5	/	/	/	13	6	1.6	/
O=C(COc1ccccc1)Nn1c(-c2ccccc2)nc2ccccc2c1=O	i	-0.2	0.65	12	-2	-22	-16	-18	2.9
CCOc1ccccc1OCC(=O)OCC(=O)c1c(C)[nH]c2ccccc12	i	1.1	0.67	-3	-6	-15	-16	-0.4	2.1

Compound	FGF22 binding	HNF4A DNA FP	E coli growth	B2AR ag	ALR inh	Ecoli rRNA inh	Ecoli rRNA inh OD600	Ecoli rRNA inh RFP	UCH37 DUB inh
CC(C)(C)c1cc(NC(=O)CSc2nnc(NCc3ccccc3)s2)n(-c2ccccc2)n1	i	0.5	0.73	-18	-2	-13	-30	-9.1	1.2
Cc1ccccc1C(=O)Nc1ccccc1C(=O)NC1CC1	i	1.5	0.69	1	-11	3	5	0.7	5.4
COCCNC(=O)c1ccc(N2CCCCC2)c(NS(=O)(=O)c2ccc(C)cc2)c1	/	1.2	0.69	-7	10	/	/	/	4.7
Cc1ccc2cc(C(c3nnnn3Cc3ccccc3)N3CCc4ccccc43)c(=O)[nH]c2c1C (stereo unspecified)	/	6.2	0.73	16	-36	/	/	/	-2.1
CN(C)CCNC(=S)Nc1cccc(Cl)c1	/	0.5	0.68	1	-5	/	/	/	5.2
COc1cc(C(=O)Nc2ccc(Cl)c(C(F)(F)F)c2)cc(OC)c1OC	/	-1.3	0.64	13	17	/	/	/	2.0
N#C/C(=C\c1cc2ccccc2nc1N1CCOCC1)C(=O)Nc1ccc(N2CCOCC2)cc1	i	0.1	0.69	20	-3	-5	3	-4.3	0.2
CCn1c(C)csc1=NC(=O)c1ccccc1O	i	-3.2	0.69	3	1	-23*	-13*	-1.3*	-11

Retrieved by compound from the entries so far (2):
Compound	FGF22 binding	HNF4A DNA FP	E coli growth	B2AR ag	ALR inh	Ecoli rRNA inh	Ecoli rRNA inh OD600	Ecoli rRNA inh RFP	UCH37 DUB inh
Cc1ccc2cc(C(c3nnnn3Cc3ccccc3)N3CCc4ccccc43)c(=O)[nH]c2c1C (stereo unspecified)	/	6.2	0.73	16	-36	/	/	/	-2.1
N#C/C(=C\c1cc2ccccc2nc1N1CCOCC1)C(=O)Nc1ccc(N2CCOCC2)cc1	i	0.1	0.69	20	-3	-5	3	-4.3	0.2

Next records follow:
Compound	FGF22 binding	HNF4A DNA FP	E coli growth	B2AR ag	ALR inh	Ecoli rRNA inh	Ecoli rRNA inh OD600	Ecoli rRNA inh RFP	UCH37 DUB inh
Cc1ccc(-c2nc(NC(=O)c3cc(C(C)(C)C)nn3C)sc2C)cc1Cl	i	-2.6	0.69	10	/	7	-16	-4.6	-11
CN(CCNC(=O)CCNC(=O)Cn1ccc2ccccc2c1=O)Cc1ccccc1	/	-0.8	0.74	-9	-1	/	/	/	-1.2
CC(=O)Nc1cc2c(cc1NC(=O)Cn1nc(-c3ccccc3)ccc1=O)OCCO2	/	0.9	0.64	-1	-10	5	-6	0.3	3.2
Cc1ccc(C)c(CSc2nnc(-c3ccccn3)n2N)c1	/	-0.5	0.63	2	-1	/	/	/	2.4
COCCSc1nnc(NS(=O)(=O)Cc2ccccc2)s1	i	1.7	0.66	-3	-3	8	0	2.0	3.3
CCCCCCSC1=C(C#N)C(=O)NC2(CCCCC2)S1	/	2.5	0.72	4	/	/	/	/	6.8
CCOC(=O)C1CN(S(=O)(=O)c2cc(OC)ccc2OC)C1	i	-2.0	0.67	6	-1	0	10	-1.2	3.6
O=C(c1cccc(C(F)(F)F)c1)C1CCCN(C(=O)C2CCOCC2)C1 (stereo unspecified)	i	-2.6	0.68	3	-1	3	3	-1.8	2.6

Compound	FGF22 binding	HNF4A DNA FP	E coli growth	B2AR ag	ALR inh	Ecoli rRNA inh	Ecoli rRNA inh OD600	Ecoli rRNA inh RFP	UCH37 DUB inh
CCNC(=O)C1(C)CCCN(Cc2cccc3ccccc23)C1 (stereo unspecified)	i	-1.9	/	/	/	-23*	-2.4*	-2.3*	/
O=C(C1CCCN(c2ncnc3c2nc2n3CCCCC2)C1)N1CCN(c2ccc(F)cc2)CC1 (stereo unspecified)	i	1.0	0.68	11	12	-16	-27	-0.2	6.1
O=C(Nc1cccc(NC(=O)c2cccs2)c1)c1cccnc1	i	-0.2	0.69	-8	-6	5	4	6.6	4.2
Cc1cc(Br)ccc1NC(=O)CN(C)C(=O)C1CSC2(C)CCC(=O)N12 (stereo unspecified)	i	1.1	0.65	4	2	2	11	-1.5	1.5
Cc1ccn2c(=O)nc(SCC(=O)N3CCCCCC3)nc2c1	i	-4.3	0.7	3	12	3	1	-2.1	4.9
Nc1[nH]c(=S)[nH]c(=O)c1-c1ccccc1	/	-3.3	0.71	0	36	/	/	/	4.8
CCN(/C(N)=N/c1nc(C)cc(C)n1)c1ccccc1	i	-3.2	/	9	-4	16	19	4.4	/
O=C(CCCc1ccccc1)Nc1nncs1	/	-4.2	0.72	-6	0	/	/	/	-1.9

Compound	FGF22 binding	HNF4A DNA FP	E coli growth	B2AR ag	ALR inh	Ecoli rRNA inh	Ecoli rRNA inh OD600	Ecoli rRNA inh RFP	UCH37 DUB inh
O=C(CCSCCC(=O)NCCN1CCOCC1)NCCN1CCOCC1	/	0.3	0.72	-3	/	/	/	/	2.7
Cc1nc(N)sc1-c1csc(Nc2ccccc2)n1	/	3.4	0.66	20	18	/	/	/	1.6
C=CCNC(=S)N1CCN(c2ncc3c(=O)c(C(=O)O)cn(CC)c3n2)CC1	/	-2.7	0.46*	-15	-6	/	/	/	-3.3
COc1ccc(C2CC(=O)C(C=NCCO)=C(O)C2)cc1 (stereo unspecified)	i	-1.0	0.64	16	-12	5	6	2.4	0.3
Cc1ccc(CNC(=O)CN(c2cccc([N+](=O)[O-])c2)S(=O)(=O)c2ccccc2)cc1	/	-4.2	0.71	1	0	/	/	/	1.9
CCOc1ccc(C(=O)Nc2ccc3c(c2)C(=O)NC3=O)cc1	i	11	0.76	0	-17	12	12	-0.7	-73
CCOC(=O)C1CCCN(C(=O)c2cc3c(C)nc4ccccc4c3o2)C1 (stereo unspecified)	/	3.6	0.71	-7	1	/	/	/	4.2
CC(C)(C)c1ccc(C(=O)NCc2nnc(SCC(=O)N3CCCc4ccccc43)n2-c2ccccc2)cc1	i	-1.5	0.68	-3	/	15	9	-5.1	1.4
CCN(CC)c1ccc2c(Nc3ccccc3)c(C=O)c(=O)oc2c1	i	-3.7	0.64	3	2	-1	2	8.1	3.5
COc1cccc(OC)c1C(=O)Nc1ccc(NC(=O)c2ccco2)cc1	/	-3.4	0.71	-10	-2	/	/	/	0.9
COCC(C)NC(=O)CCSc1nc(-c2ccc(OC)cc2)cc(C(F)(F)F)n1 (stereo unspecified)	/	1.9	0.74	3	1	-12	-7	-0.5	-40

Screening results from PubChem.

Only part of the results is shown (hit frequency here may not be typical).
